Assay outcomes deposited in PubChem BioAssay by National Center for Advancing Translational Sciences (NCATS).
Menin MLL FP FL – menin-MLL binding inhibition, fluorescein peptide; Fluorescence polarization, fluorescein-MLL peptide displacement from menin; FP activity change, % at 61.4 µM; 290,000 tested, under 10 active; inconclusive = falling polarisation curve, or a change in total fluorescence; inactive = total fluorescence flat and polarisation flat or rising; no compound was filed as active; the % refers to the polarisation; negative = inhibition;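 note: % of control where 0% means no effect; inhibitors lower the polarisation; unlabelled MLL peptide was the positive control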
Sfp inh – Sfp phosphopantetheinyl transferase inhibition; Potency, µM, without a hit: max response, negative = inhibition, most hits filed as inhibitors; 310,000 tested, 3.5% active; Q9F4F7; Biochemical Sfp PPTase activity, qHTS; AID 1490; active = well fitted inhibition curve with a large enough effect; inconclusive = small, poorly fitted or top-dose-only effect, or another doubt; inactive = no such curve, though single readings can be large or run the other way;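 note: the enzyme is Sfp with the accession as filed and its product quenches rhodamine fluorescence; potency is the fitted concentration of half-maximal effect; 0% = enzyme reaction without inhibitor and -100% = no enzyme wells; top concentration of the series not given in the record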
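After 15 min at room temperature with compound, 15 nM Sfp received 5 uM rhodamine-CoA plus 12.5 uM BHQ-2-ybbR (50 mM Hepes pH 7.6, 10 mM MgCl2). Rate came from the fluorescence difference over 30 min, ex 525/em 598 nm.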
gsp ag – activates gsp, the McCune-Albright syndrome mutation | gsp mutant cells, cAMP HTRF, 30 min; control for the full effect not named in the record | Potency, µM (highest dose often 76.9 µM), inactives show at the top dose activation (cAMP increase), most hits filed as activators | 340,000 tested, 0.13% active; active = well fitted activation curve with a large enough effect; inconclusive = small, poorly fitted or top-dose-only effect, or another doubt; inactive = no such curve, though single readings can be large or run the other way; cell line not stated here;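 note: phosphodiesterase inhibitor Ro 20-1724 added with compounds to block cAMP breakdown; potency is the fitted concentration of half-maximal effect; nearly all actives have a fitted effect of over 60% in size; about a fifth of the inactives were tested at one dose only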
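Cells stably selected in G418 were plated at 2000/well, grown 16-24 hr, then given compounds in DMSO with the PDE inhibitor […] (300 uM solution added) for 30 min at 37C; cAMP was read by HTRF.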
TRPML1 inh – inhibitors of human TRPML1 channel. TRPML1-inducible cells, Ca2+ dye fluorescence, FDSS; hits give low values; inhibition of EC80 agonist-evoked calcium signal. activity change, negative = inhibition, % (test concentration not listed). 390,000 tested, 0.02% active. AID 624415; in the data active means activity change below about -50%; inconclusive means about -30% to -50%; inactive means above about -30%;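 note: stimulus is agonist 54-4 at its EC80 concentration; % is set by controls: 0 for no effect and ±100 for the full control effect; compound concentration not given in the record; the text of the record puts the active cut at -80%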
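TRPML1-DL cells, Tet-induced overnight (~16 h, 37 °C) at 1,500 cells/well, were loaded with Ca8 no-wash dye plus quencher for 45-90 min at room temperature. Compounds were pinned during FDSS kinetic reading; agonist 54-4 at EC80 (4 uM final) then added.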
gsp antagonist – antagonists of gsp mutant (McCune-Albright syndrome) | gsp-mutant cells, cAMP HTRF, 30 min; control for the full effect not named in the record | Potency, µM (series often up to 76.9 µM), for the others: at the top dose activity change, negative = inhibition, usual class: inhibitors | 340,000 tested, 0.4% active; active = falling curve of any shape with a large fitted effect; inconclusive = falling curve, mostly with a smaller effect; inactive = flat or rising curve; cell line not stated here;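 note: intracellular cAMP measured with PDE inhibitor Ro 20-1724 present during compound exposure; potency is the fitted concentration of half-maximal effect; % is set by controls: 0 for no effect and ±100 for the full control effect; nearly all actives have a fitted effect of over 65% in size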
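G418-selected cells were plated in DMEM/10% FBS for 16-24 h at 37C, then treated with compounds plus the PDE inhibitor […] (300 uM solution added) for 30 min at 37C. Intracellular cAMP was measured by HTRF after 30 min lysis at room temperature.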
TRPV1 PAM – human TRPV1 potentiation; AID 540277; Q8NER1; 320,000 tested, 0.02% active; TRPV1-expressing cells, Fluo-8 calcium influx, capsaicin EC20 potentiation; host cell line not named in the record; control for the full effect not named in the record; potentiation, % at 8.33 µM; active means potentiation above 80%; inconclusive means 30% to 80%; inactive means below 30%; note: 0% is about no effect
Target sequence (Q8NER1 whole entry, looked up): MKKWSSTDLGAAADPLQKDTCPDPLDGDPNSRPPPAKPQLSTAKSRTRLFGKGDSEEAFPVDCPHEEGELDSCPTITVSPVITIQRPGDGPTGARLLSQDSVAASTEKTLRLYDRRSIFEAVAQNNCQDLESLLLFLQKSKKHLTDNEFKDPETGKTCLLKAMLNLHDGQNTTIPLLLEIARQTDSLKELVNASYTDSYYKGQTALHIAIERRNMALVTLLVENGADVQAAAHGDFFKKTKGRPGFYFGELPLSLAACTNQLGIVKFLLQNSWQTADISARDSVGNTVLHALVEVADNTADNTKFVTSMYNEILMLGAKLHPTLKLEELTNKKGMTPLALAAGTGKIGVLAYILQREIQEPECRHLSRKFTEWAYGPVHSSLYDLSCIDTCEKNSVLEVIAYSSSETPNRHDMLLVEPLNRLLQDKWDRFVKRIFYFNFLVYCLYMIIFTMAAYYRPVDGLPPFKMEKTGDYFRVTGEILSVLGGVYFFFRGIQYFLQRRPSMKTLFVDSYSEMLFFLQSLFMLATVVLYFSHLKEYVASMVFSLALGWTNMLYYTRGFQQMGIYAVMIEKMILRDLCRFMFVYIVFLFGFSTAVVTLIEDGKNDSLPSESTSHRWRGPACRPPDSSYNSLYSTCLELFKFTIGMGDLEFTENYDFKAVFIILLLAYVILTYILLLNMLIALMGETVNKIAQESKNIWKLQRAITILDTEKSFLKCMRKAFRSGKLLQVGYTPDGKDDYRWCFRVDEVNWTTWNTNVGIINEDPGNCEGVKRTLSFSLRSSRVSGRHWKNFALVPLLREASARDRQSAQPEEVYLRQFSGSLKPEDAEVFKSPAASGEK
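Fluo-8 calcium influx in TRPV1-expressing cells, kinetic read (ex 480/em 520 nm). Compound added and read 3 min for agonist activity, followed by capsaicin at EC20 final and 2 min further read for enhancement.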
ClpP mod – qHTS Assay for Activators of ClpP. ATP-dependent Clp protease proteolytic subunit (Bacillus subtilis (strain 168)), P80244. purified B. subtilis ClpP, FRET peptide cleavage, 20 min. Potency, µM (titrated, usually from 57.5 µM), without a hit: top-dose activity change, negative = active. 340,000 tested, 1.9% active. AID 651965, 2013; active = well fitted falling curve with a large enough effect; inconclusive = small, poorly fitted or top-dose-only effect; inactive = no such curve, though single readings can be large or run the other way; note: potency is the fitted concentration of half-maximal effect; the source files actives as falling curves though it sought activators and does not explain the sign; nearly all actives have a fitted effect of over 65% in size; many hits overshoot -100%
Target sequence (P80244 whole entry, looked up): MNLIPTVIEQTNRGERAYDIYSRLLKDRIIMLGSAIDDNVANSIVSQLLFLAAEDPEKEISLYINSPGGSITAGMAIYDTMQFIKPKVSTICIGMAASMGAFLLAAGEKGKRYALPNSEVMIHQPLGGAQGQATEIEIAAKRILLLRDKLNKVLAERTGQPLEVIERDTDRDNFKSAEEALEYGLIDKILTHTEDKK
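Buffer: 100 mM Tris/HCl pH8, 100 mM KCl, 0.05% low protease BSA, 2.5% glycerol, 0.01% Tween-20. ClpP 10 microg/mL final; 20 min RT; delta FRET normalized to ADEP and DMSO controls.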
* marks the source's active call; other numbers are inactive results; u = inconclusive; x = not tested or not shown; & = joins results of further samples; [ ] = remark or other dose.

SMILES	Menin MLL FP FL	Sfp inh	gsp ag	TRPML1 inh	gsp antagonist	TRPV1 PAM	ClpP mod
CC(C)[C@H](NC(=O)c1ccco1)C(=O)OCC(=O)Nc1ccc(F)cc1	-4.5	5%	14%[15.4 µM]	3	0%	-5	x
Cn1ncc2c(N3CCN(c4ccc(Cl)c(Cl)c4)CC3)ncnc21	1.0	-16%	-5%[15.4 µM]	6	1%	-1	x
N#Cc1cccc(NC(=O)CN2NS(=O)(=O)c3ccccc3C2=O)c1	4.8	15%	-17%	-11	-3%	8	-2.3%
Cc1cc(C)c(CN2CCN(C(=O)Cn3cnc4c(OCc5ccccc5)ncnc43)CC2)c(C)c1	x	x	x	0	u	x	-2.7%
Cc1ccc(SCCC(=O)N2CCC(C(N)=O)CC2)cc1	1.9	-1%	2%	19	0%	-2	-3.8%
Cc1ccc(-n2c(C)cc(C(=O)CSc3n[nH]c(N)n3)c2C)cc1	3.0	-12%	-10%	-2	u	-8	-0.6%
CCOC(=O)c1cnc(-c2ccccc2)nc1N1CC(C)OC(C)C1 (configuration not stated)	-3.0	-1%	-17%	-6	-10%	-18	-1.9%
C=CCNC(=O)c1cc(Cl)ccc1Cl	3.0	1%	6%	4	10%	2	0.9%
Cc1nn(-c2ccccc2)c(C)c1NC(=O)COC(=O)c1ccc(O)cc1O	x	8%	39%	-11	-9%	1	-1.0%
Cc1csc(NC(=O)c2cccc(S(=O)(=O)N3CCCCC3)c2)n1	0.7	11%	-16%	14	-10%	-12	-0.1%
COc1ccc(C/C(C)=N/Nc2nc(C)cc(=O)[nH]2)cc1	-5.0	50µM*	u	-12	9%	10	-0.3%
CC(C)n1c(SCC(=O)N2c3ccccc3Sc3ccccc32)nc2c1c(=O)n(C)c(=O)n2C	4.7	6%	7%	6	9%	-4	0.7%
CCc1ccc(NC(=O)CSc2nnc(SCC(=O)Nc3ccc(CC)cc3)n2N)cc1	-1.0	1%	14%	-11	-3%	-2	-2.0%
Cc1cc2ccccc2n1CCNC(=O)c1ccc(S(=O)(=O)N2CCOCC2)cc1	-18	-6%	-50%[inhibitor]	3	-13%	-17	0.1%
CC(Oc1cccc(F)c1)C(=O)Nc1ccc(N2CCOCC2)cc1 (configuration not stated)	x	x	u	-5	-3%	-10	-0.2%
N#CC(c1ccccc1)c1ccc(C(=O)c2ccc(F)cc2)cc1 (configuration not stated)	2.3	4%	1%	23	44%[activator]	-12	-4.3%
CCOC(=O)C1(C)C=C(Nc2ccc(OCC)cc2)C(=O)N1c1ccccc1 (configuration not stated)	1.0	14%	-35%[inhibitor]	23	-14%	u	-18%
N#CC1(NC(=O)CSc2nnc(Nc3ccccc3F)s2)CCCC1	x	x	2%	-24	2%	13	-0.8%
CCCCN1CC[C@H]2C=CC[C@@H](C(=O)Nc3nccs3)[C@H]2C1=O	x	x	u	-12	8%	x	3.1%&-0.6%
COc1ccc(C(=O)N/C(=C\c2cn(S(=O)(=O)N(C)C)c3ccccc23)C(=O)NCCN2CCOCC2)cc1	6.9	10%	-89%[inhibitor]	33	0%	11	-1.0%
COCc1nnc(NC(=O)CSc2ccccc2)s1	2.6	-10%	-29%	5	6%	-3	2.4%
CCOC(=O)C1CCCN(c2c(NCCCN(C)c3ccccc3)c(=O)c2=O)C1 (configuration not stated)	-1.9	-1%	-17%	-2	-16%	0	1.8%
FC(F)Sc1ccc(NC2=NCCCCC2)cc1	0.6	12%	-6%	-14	13%	6	1.4%
O=C(NCCCc1ccccc1)Nc1ccccc1	1.8	2%	35%	4	8%	-17	0.1%
CN(C)Cc1n[nH]c(=O)c2ccccc12	-3.9	11%	-41%[inhibitor]	2	7%	16	1.3%

Additional compounds follow.
SMILES	Menin MLL FP FL	Sfp inh	gsp ag	TRPML1 inh	gsp antagonist	TRPV1 PAM	ClpP mod
Cc1ccc(OCCCCN(C)Cc2ccccc2)c(Br)c1	1.2	-2%	u	13	13%	-5	-3.3%
CCN(Cc1ccccc1)Cc1ccc(OCc2ccccc2)cc1	-6.5	-28%	-48%[inhibitor]	0	4%	2	0.0%
C[C@@H]1CCCCCCCCC(=O)OCCN(C(=O)OC(C)(C)C)[C@H](C)CCCCCCCCC(=O)OCCN(C(=O)OC(C)(C)C)[C@H](C)CCCCCCCCC(=O)OCCN(C(=O)OC(C)(C)C)[C@H](C)CCCCCCCCC(=O)OCCN1C(=O)OC(C)(C)C	x	x	x	-19	5%	x	-2.3%
CC(C)CCn1c(COc2ccccc2)nn(CCC#N)c1=S	0.3	1%	17%	19	-15%	21	-0.4%
Fc1ccc(-n2c(-c3ccco3)n[nH]c2=S)cc1	2.0	79µM*	u	-12	3%	-7	u
Cc1cc(=O)[nH]c(SCC(=O)NNC(=O)Cc2ccccc2)n1	-0.4	-7%	-27%[15.4 µM]	4	-12%	-11	-2.4%
O=C(COC(=O)c1cc(Br)ccc1O)NNC(=O)c1cccs1	x	x	-20%	6	28%	9	33%
O=C(Cn1c2ccccc2c2nc3n(c(=O)c21)CCS3)N1CCCC1	x	11%	u	16	7%	5	3.9%
O=C(CSc1nnc(CNC(=O)c2c(F)cccc2Cl)o1)NC1CCCC1	x	13%	3%	34	21%	6	0.2%
COc1ccc(NC(=O)c2sc3nc4c(cc3c2N)CN(Cc2ccccc2)CC4)c(OC)c1	x	x	x	-10	x	8	-6.3%
CC1(C)NC(=O)N(CC(=O)N2CCC(Cc3ccccc3)CC2)C1=O	x	14%	2%	-3	4%	12	-1.8%
O=C(NCCc1ccccc1)C1CCC(CNS(=O)(=O)c2cccs2)CC1 (configuration not stated)	-0.1	11%	-31%[inhibitor]	26	-12%	-2	x
Cc1nc2ccccn2c1/C(O)=C1\C(=O)C(=O)N(CCN2CCOCC2)C1c1cccnc1 (configuration not stated)	-16	13%	14%	0	-3%	-8	-26%
Cc1ccc2nc(SCC(=O)Nc3ccc4c(c3)CCC4)[nH]c2c1	3.2	4%	-18%	6	3%	-7	3.9%
Cc1cc(C)nc(SCC(=O)Nc2nccs2)n1	-5.3	-10%	14%	-2	8%	0	x
NS(=O)(=O)c1cccc(NC(=O)CCC(=O)c2cccs2)c1	-5.1	14%	14%	x	11%	2	-0.6%
CCOC(=O)c1cc2c(c(-c3ccccc3)n1)[C@H](CCO)N(S(=O)(=O)C(C)(C)C)C2	x	x	x	-5	13%	x	2.1%
CCOC(=O)N1CC(C)N(C(=S)Nc2ccccc2)CC1C (configuration not stated)	x	x	3%	-7	7%	x	x
Cn1c(N)c(C(=O)COC(=O)Cc2ccc(Cl)cc2)c(=O)n(C)c1=O	x	x	-6%	-6	17%	20	-6.5%
COc1ccc2c(COC(=O)c3cccc(S(=O)(=O)NCC(C)C)c3)cc(=O)oc2c1	-5.3	16%	7%[15.4 µM]	-14	u	-9	x
CCOC(=O)C1=C(O)C(=O)N(Cc2ccc(C(C)(C)C)cc2)CC1	-0.7	-5%	2%	32	-5%	-3	0.6%
CSc1ccccc1OCc1cc(C(=O)N2CCNC(=O)C2)no1	2.9	14%	-26%	3	11%	2	-4.8%
O=C(NCC(c1ccco1)N1CCc2ccccc21)c1cccc([N+](=O)[O-])c1 (configuration not stated)	x	x	-12%[15.4 µM]	-9	u	-9	x
COCCCNCC(=O)c1c(N)n(Cc2ccccc2)c(=O)n(C)c1=O	-2.6	5%	-12%	57	10%	7	-7.3%
CCCC(=O)c1c(NC)cc(C)oc1=O	2.6	11%	-9%	0	-19%	-9	0.8%

Next section:
SMILES	Menin MLL FP FL	Sfp inh	gsp ag	TRPML1 inh	gsp antagonist	TRPV1 PAM	ClpP mod
Clc1ccc(-c2nnc(NCCN3CCCC3)c3ccccc23)cc1	-2.0	-2%	-9%	x	9%	9	-0.4%
OCCNCCCCCOc1ccc(F)cc1	2.6	5%	-2%	0	6%	10	1.4%
CCC1CCc2sc(C(=O)N(C)CC(=O)Nc3ccc(OC)cc3)cc2C1 (configuration not stated)	x	x	-1%[15.4 µM]	-3	7%	-17	-1.3%
CC(C)CN(C(=O)COC(=O)c1c2c(nc3ccccc13)CCC2)c1c(N)n(Cc2ccccc2)c(=O)[nH]c1=O	x	3%	-1%	0	-12%	5	-11%
O=[N+]([O-])c1ccc(S(=O)(=O)Nc2ccc(S(=O)(=O)N3CCCC3)cc2)cc1	x	-6%	10%	18	-24%	u	x
O=C(c1ccco1)N1N=C(c2ccc(Br)cc2)CC1c1ccco1 (configuration not stated)	x	x	-36%[inhibitor]	3	-16%	7	0.7%
Cc1ccc(-n2ncc(N(C)C)c(Cl)c2=O)cc1	0.3	18%	-3%	-17	0%	x	2.6%
O=C(c1cccc(-c2ccco2)c1)N1CCCC(N2CCN(c3ccc(F)cc3)CC2)C1 (configuration not stated)	x	-14%	-3%	16	u	-13	-2.6%
Cc1ccc(NC(=O)c2cc(-c3cccs3)nc3ccccc23)nc1	0.0	-12%	-4%[15.4 µM]	28	-20%	-6	x
Cc1ccc(NS(=O)(=O)c2cc(C(=O)N3CCCC3)ccc2C)cc1C	-0.5	17%	-30%	11	-11%	4	x
CN(C)CCCN(C(=O)c1cccs1)c1nc2cc3c(cc2s1)OCO3	0.8	-2%	13%[15.4 µM]	11	-12%	0	x
CC(CN1C(C)CCCC1C)OC(=O)c1ccc(Cl)cc1Cl (configuration not stated)	-5.2	10%	-5%[15.4 µM]	-12	14%	-1	x
COC(=O)CCN(C(=O)c1ccc([N+](=O)[O-])cc1)c1ccccn1	0.7	3%	-9%[15.4 µM]	13	15%	-10	-7.7%
CC(=O)Nc1ccc2nc(CN3CCC(CO)(CCc4ccccc4)CC3)ccc2c1	8.6	-14%	9%[15.4 µM]	-14	2%	-2	x
O=C1c2sc3nc4c(c(=O)n3c2C(=O)N1c1ccccc1)CCC4	-0.3	u	31%	-7	-12%	-15	-2.5%
CC(=O)Nc1cccc(-c2csc(Nc3ncccn3)n2)c1	1.1	-27%	x	x	x	-10	x
Cc1ccc(NC(=O)Cn2c(-c3ccc(F)cc3)cnc2SCC(=O)Nc2c(C)cccc2C)cc1	-1.8	-16%	7%	10	11%	1	1.2%
